CSC inhib – cancer stem cell inhibition. cancer stem cell-like cells viability, luminescence. inhibition, % at 7.5 µM. 1.1% of 300,000 active;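 active = mean at 75% or more and at least half the replicates too; tested in HMLE shEcad cells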;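 note: 0% = median of negative and 100% = median of positive control wells; the first replicate is given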
Yeast UUG start – alters start codon recognition fidelity in yeast; S. cerevisiae UUG-firefly luciferase reporter, luminescence/redox ratio; activity score, % at 18.7 µM; 0.13% of 350,000 active; AID 602363;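 active = replicate mean at a twofold rise or more, about +100% in these data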;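 note: firefly luciferase made from a UUG start codon reports start codon fidelity; reporter light over untreated wells divided by growth signal over untreated wells; some hits fall short of that in this replicate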
Rce1 inhib – inhibitors of yeast Ras-converting enzyme. AID 2563. calls only. 0.27% of 290,000 active. Q03530. yeast membranes, quenched prenylated peptide cleavage fluorescence;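 active = fall in fluorescence gain of 50% or more versus controls, with final raw signal at or below 3038400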;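 note: plate controls were neutral control wells for no effect and wells lacking membranes for full effect; tested at 10 µM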
Target sequence (Q03530 whole entry, looked up): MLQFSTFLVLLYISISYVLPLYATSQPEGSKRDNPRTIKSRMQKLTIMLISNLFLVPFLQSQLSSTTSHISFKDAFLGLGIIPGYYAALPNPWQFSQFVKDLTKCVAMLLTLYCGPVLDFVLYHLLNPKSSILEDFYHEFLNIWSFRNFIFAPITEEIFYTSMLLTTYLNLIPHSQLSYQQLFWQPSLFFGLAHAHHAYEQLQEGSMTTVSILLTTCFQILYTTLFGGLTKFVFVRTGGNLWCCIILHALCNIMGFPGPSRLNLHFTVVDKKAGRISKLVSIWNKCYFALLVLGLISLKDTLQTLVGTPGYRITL
MT1-MMP act inh – MT1-MMP (human) activation inhibition | GFP/RFP ratio change, % at 20 µM | P50281 | HT1080 RFP-PRO-GFP cells, GFP/RFP ratio fluorescence, overnight; percent of plate control window, DMSO zero | 0.061% of 360,000 active;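 active = GFP/RFP ratio change of at least 30% with cell ATP level not reduced by more than half and red fluorescence within 50% of control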; note: strong numbers were not always called active
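Test system: HT1080 RFP-PRO-GFP cells; Benchmarks: DMSO and RFP-L50D-GFP cell wells; Timing: cells overnight before dosing, compound overnight, 37 °C, 5% CO2; Compound: one 20 µM compound dose with 1% DMSO; Read-out: GFP/RFP fluorescence ratio.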
PABP polyA inh – PABP-poly(A) binding inhibition | P11940 | PABP-poly(A) RNA binding, fluorescence polarization | inhibition, % at 35 µM | 1% of 290,000 active | AID 2014;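 active = 50% or more with normal probe brightness, or confirmed in later tests; about a fifth of its hits are not listed in these tables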;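 note: calls also rest on retests at 20 µM and on dose response follow-up; controls were probe without protein and protein plus probe with vehicle; some compounds called inactive have numbers as strong as hits; many hits fall short of the cut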
HIV Env fusion – inhibitors of HIV Env-mediated cell fusion; HeLa-JRFL Env/CEM21 cell fusion, luciferase; 1.1% of 360,000 active; inhibition, % at 12.3 µM;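 active = mean replicate inhibition score of at least 50 and every replicate individually at or above 50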;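 note: 0% = plate neutral controls and 100% = maraviroc near 300 nM; one replicate is shown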
eIF4H FP inh – inhibitors of RNA binding by human eIF4H | Q15056 | eIF4H fluorescence polarization binding assay | inhibition, % at 35 µM | 0.94% of 290,000 active;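 active = 50% or more with normal probe brightness, or confirmed in later tests; about a fifth of its hits are not listed in these tables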;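 note: calls also rest on retests at 20 µM and on dose response follow-up; 0% = protein and probe with vehicle and 100% = probe without protein; strong numbers were not always called active; many hits fall short of the cut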
eIF4H FP inh retest – also measured in eIF4H FP inh; calls as there; inhibition, %; compound at 20 µM; confirmation average;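 mean of two retest wells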
PABP polyA inh retest – further read-out of PABP polyA inh, marked with its call; inhibition, %; compound at 20 µM; confirmation repeats;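 mean of two retest wells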
MT1-MMP act inh RFP – also measured in MT1-MMP act inh; calls as there; RFP signal change, %; measured here: RFP expression control read;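 0 = vehicle wells; hits needed this value within 50% of zero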
The depositor's hits bear a star; i = inactive; · = no result given.

SMILES | CSC inhib | Yeast UUG start | Rce1 inhib | MT1-MMP act inh | MT1-MMP act inh RFP | PABP polyA inh | HIV Env fusion | eIF4H FP inh | others
CC(=O)OC(C)[C@H]1CC[C@H]2[C@@H]3CC[C@H]4C[C@@H](OC(C)=O)CC[C@]4(C)C3=CC[C@]12C (stereo not given in full) | 27 | -9 | i | -2 | -1 | · | -9 | ·
O=C(N/C(=C/c1ccco1)C(=O)N1CCc2ccccc21)c1ccco1 | -8 | · | i | -2 | 3 | 11 | 1 | 34
COc1ccccc1C(C)NS(=O)(=O)c1cccs1 (stereo not given) | 0 | · | i | · | · | 1 | · | 4
CCC(C)Sc1ccc([C@H]2N[C@@](CC(C)C)(C(=O)OC)[C@H]3C(=O)N(CC)C(=O)[C@@H]23)cc1 (stereo not given in full) | 27 | 1 | i | -3 | -8 | · | 29 | ·
Cc1ccc(-c2nc3cc(C)c(Br)c(C)n3c2Cc2cccc(F)c2)cc1 | · | -15 | · | -4 | -2 | · | -20 | ·
Cc1cc(=O)oc2cc(OCC(=O)NCCc3c[nH]c4ccc(F)cc34)ccc12 | -20 | -17 | i | 4 | -2 | 9 | -12 | 8
Cc1ccc(S(=O)(=O)N2CCCC2CNC(=O)C(=O)Nc2ccccc2)cc1 (stereo not given) | 26 | -15 | i | -2 | -4 | · | -3 | ·
O=S(=O)(c1ccc(Br)cc1)N1CCN=C1SCc1cccc(F)c1 | 3 | -3 | i | -1 | 2 | 5 | 10 | -9
Cc1cc(C(F)(F)F)c2c(n1)sc1c(O)cc(=O)[nH]c12 | 9 | -9 | i | 2 | 3 | 5 | · | 20
CCOCc1nnc(NC(=O)C2c3ccccc3Oc3ccccc32)s1 | -3 | 11 | i | 0 | -4 | 0 | 6 | 2
CCc1ccc(CN2CCCC(C(=O)Nc3ccccc3-c3ccc(OC)cc3)C2)o1 (stereo not given) | 13 | 16 | i | -3 | -4 | · | 16 | ·
O=c1[nH]c(C(Cl)(Cl)Cl)nc2ccc3ccccc3c12 | · | -21 | i | 2 | -1 | -2 | -8 | 0
CC(=O)c1cccc(NC(=S)N2CCCC2)c1 | -2 | -25 | i | -1 | 5 | 1 | -10 | 0
Cc1cccc(C(=O)NC(NCCc2ccccc2)C(Cl)(Cl)Cl)c1 (stereo not given) | 24 | 4 | i | -2 | -3 | 5 | -265 | 11
N#Cc1cc2c(=O)n3ccccc3nc2n(-c2ccc(Cl)cc2)c1=O | -17 | 0 | i | -3 | 0 | -10 | 2 | 50
O=C(Nc1ccc(C2CC2(Cl)Cl)cc1)c1ccccc1Br (stereo not given) | -9 | · | i | 2 | -7 | 14 | · | -4
CC1(C)OC2OC3C(CN)OC(c4ccccc4)OC3C2O1 (stereo not given) | · | -12 | · | -5 | 0 | · | -8 | ·
O=C(Cn1cc(C(F)(F)F)ccc1=O)N/N=C/c1ccc(Cl)c(Cl)c1 | -2 | -7 | i | -3 | -7 | -15 | 6 | -1
COc1ccc(OC)c(CN2CCN(C(=O)c3cccc(S(=O)(=O)Nc4ccc(C)cc4)c3)CC2)c1 | -15 | -4 | i | -1 | -13 | · | 20 | ·
O=C(Cn1cnc2c(oc3ccccc32)c1=O)NCC1CCCO1 (stereo not given) | 4 | · | i | 0 | -3 | -4 | -6 | 4
Fc1ccc2c(c1)Sc1ccc(Cl)cc1CC2N1CCN(CCC2OCCO2)CC1 (stereo not given) | 44 | · | i | -6 | -5 | · | 19 | ·
CC(OC(=O)Cn1ccccc1=O)C(=O)Nc1cc(Cl)cc(Cl)c1 (stereo not given) | -13 | -4 | · | 2 | 0 | · | 26 | ·
Cc1cccc(OCCCCCNCCO)c1 | 19 | -21 | i | 3 | -5 | 3 | 9 | -7
Cc1ccc2c(=O)cc(C(=O)NC3CCS(=O)(=O)C3)oc2c1C (stereo not given) | · | -14 | i | 1 | 0 | 0 | 0 | 2
CCCc1ncc(C(O)(c2ccccc2)c2ccc(C)cc2)n1C (stereo not given) | 32 | -10 | i | -2 | 0 | 40 | 6 | -4
Cc1ccc(-n2c(Cl)c(Cl)nc(Cl)c2=O)cc1 | 91* | · | · | 1 | -6 | 0 | · | 4
O=C(Cc1coc2ccc3ccccc3c12)N1CCc2ccccc21 | 15 | -18 | i | 3 | 4 | -7 | -52 | -18
COC(=O)[C@H](C)[C@@H]1C[C@@]1(C)[C@@H](NC(=O)OCc1ccccc1)c1ccccc1 | -13 | -16 | i | -7 | -5 | -8 | · | 0
CC(=O)c1ccccc1NC(=O)COC(=O)Cc1cccc(C(F)(F)F)c1 | · | -15 | · | 4 | 1 | · | -16 | ·
Cc1ncccc1C(=O)N1CCCC(C(=O)c2ccc3c4c(cccc24)CC3)C1 (stereo not given) | 13 | · | i | -3 | -7 | -4 | 90* | -15

Nothing new here: an excerpt of the list.
SMILES | CSC inhib | Yeast UUG start | Rce1 inhib | MT1-MMP act inh | MT1-MMP act inh RFP | PABP polyA inh | HIV Env fusion | eIF4H FP inh | others
O=C(Cc1coc2ccc3ccccc3c12)N1CCc2ccccc21 | 15 | -18 | i | 3 | 4 | -7 | -52 | -18
COC(=O)[C@H](C)[C@@H]1C[C@@]1(C)[C@@H](NC(=O)OCc1ccccc1)c1ccccc1 | -13 | -16 | i | -7 | -5 | -8 | · | 0
CC(=O)c1ccccc1NC(=O)COC(=O)Cc1cccc(C(F)(F)F)c1 | · | -15 | · | 4 | 1 | · | -16 | ·
Cc1ncccc1C(=O)N1CCCC(C(=O)c2ccc3c4c(cccc24)CC3)C1 (stereo not given) | 13 | · | i | -3 | -7 | -4 | 90* | -15

New compounds follow.
SMILES | CSC inhib | Yeast UUG start | Rce1 inhib | MT1-MMP act inh | MT1-MMP act inh RFP | PABP polyA inh | HIV Env fusion | eIF4H FP inh | others
COC(=O)c1c(C)[nH]c(C(=O)CSc2nnnn2-c2ccccc2)c1C | -1 | -10 | i | 1 | 0 | -5 | · | -10
COc1ccc(OC)c(C(=O)C2COC(=O)C2)c1 (stereo not given) | · | -21 | i | 14 | -5 | -2 | · | -2
Cc1ccc(Cn2c(C3CCCN3c3nc(-c4ccc(F)cc4)cs3)nc3cc(C(=O)NCCCO)ccc32)cc1 (stereo not given) | 15 | -21 | i | 0 | -4 | · | -18 | ·
Cc1ccc(C(=O)NC(C)c2ccccc2)cc1Br (stereo not given) | · | · | i | 3 | -3 | -6 | · | 10
COc1cccc(NC(=O)c2cccc(OC)c2OC)c1 | · | 0 | i | -1 | 6 | 5 | -159 | 1
O=C(Nc1nnc(N2CCCCCC2)s1)c1cc(-c2ccc(Br)cc2)on1 | 56 | -10 | i | -3 | -2 | -12 | 7 | 2
Cc1ccc(CNC(=O)c2sc3ccc(S(=O)(=O)N4CCCCC4)cc3c2N)cc1 | 9 | · | i | · | · | 4 | · | -15
Cc1ccc(N2OC3C(=O)NC(=O)C3C2c2ccco2)cc1 (stereo not given) | -7 | -6 | i | -1 | 7 | -22 | -25 | 0
CCn1nc(NS(=O)(=O)c2ccccc2)c2cc3ccc(C)cc3nc21 | 3 | -11 | i | 0 | -1 | 11 | 4 | -9
Cc1cc(=O)oc2c(C)c(OCC(=O)N3CCN(c4cccc(Cl)c4)CC3)ccc12 | 8 | -5 | i | 1 | 0 | -6 | 4 | -8
COc1ccc(NC(=O)CC2Oc3ccc(C)cc3NC2=O)cc1 (stereo not given) | 27 | 1 | i | -1 | -2 | 6 | 16 | -14
Cc1cccc(-c2nnc(SCC(=O)N3c4ccccc4CCc4ccccc43)n2C)c1 | 1 | · | i | -3 | -3 | 5 | 23 | -7
S=C(Nc1ccccc1)Nc1ccc2cn[nH]c2c1 | -19 | · | i | -10 | -1 | 26 | -13 | 11
Cc1c(NS(=O)(=O)c2cc(C(=O)N3CCCC(C)C3)ccc2Cl)c(=O)n(-c2ccccc2)n1C (stereo not given) | -21 | -9 | · | -5 | -2 | · | -11 | ·
O=C(Nc1nc2ccc(Cl)cc2s1)c1cccc(N2C(=O)CCC2=O)c1 | 12 | -16 | · | 2 | -4 | · | -65 | ·
COc1ccc(C(C)(O)c2nc(-c3cccs3)cs2)cc1 (stereo not given) | · | -22 | · | 3 | -5 | · | 11 | ·
COc1cccc(-c2nc(CS(=O)(=O)CC(=O)NCCCN3C(C)CCCC3C)c(C)o2)c1 (stereo not given) | -4 | · | i | -3 | 2 | -8 | 13 | -1
CCN1CCN(S(=O)(=O)c2ccc(Cl)c(C(=O)N(C)C3CCCCC3)c2)CC1 | · | -11 | · | 1 | -2 | · | 0 | ·
O=C(COc1ccc(Br)cc1CO)Nc1ccccc1F | -3 | -8 | i | 2 | 1 | -4 | · | 1
CC(C)(C)c1ccc(O)c(N=Cc2cc3c(cc2[N+](=O)[O-])OCO3)c1 | 14 | -10 | i | -1 | 0 | -4 | -4 | 21
CCCCNC(=O)c1c(CSc2ccc(Cl)cc2)noc1C(=O)NCc1ccccc1 | 31 | -6 | i | 3 | 1 | · | -4 | ·
CCCC(=NC(C)CC)C1=C(O)CC(c2ccccc2)CC1=O (stereo not given) | 2 | -4 | i | 2 | 2 | -7 | 0 | 0
Cc1ccc(OCC(=O)NC(=S)Nc2cccc(NC(=O)c3ccccc3Cl)c2)cc1 | 1 | -15 | i | -6 | -3 | 9 | 3 | 4
O=C(COc1ccccc1[N+](=O)[O-])Nc1ccc2c(c1)OCO2 | · | -11 | i | 0 | 2 | -3 | -34 | 0
CCOC(=O)c1cc(-c2cccnc2)nn1-c1ccccn1 | -9 | -24 | i | -4 | 4 | -10 | · | -1
O=C(CCN1CCOCC1)Nc1cccc(Br)c1 | -4 | -13 | i | -2 | 4 | 55 | 26 | 21 | eIF4H FP inh retest=-4;PABP polyA inh retest=1
COc1ccccc1-c1cc(C(=O)N2CCCCC2)no1 | -10 | 7 | i | 5 | 5 | -4 | · | -6
Cc1[nH]c2ccc(F)cc2c1CCN(Cc1cccnc1)C(=S)Nc1cccc(F)c1 | -4 | · | i | 3 | -4 | 2 | 33 | -13
COc1ccccc1NC(=O)CSc1nnc(CNC(=O)c2ccco2)o1 | -13 | -27 | i | 1 | -3 | 0 | -43 | 1
COc1cc(/C=C(\C#N)C(=O)NCC2CCCO2)ccc1OCCC(C)C (stereo not given) | 5 | · | i | -6 | -7 | -8 | -6 | -2
C=CCn1nc2ccccc2c1OCCO | -12 | -9 | i | 4 | 3 | · | -13 | ·
CO/C=C\C=C/c1nnn(-c2ccc(Cl)cc2)n1 | 12 | · | · | 1 | 3 | -4 | -30 | -5
CC(C)c1ccc(S(=O)(=O)N2CCN(C(=O)CN3C(=O)c4ccccc4C3=O)CC2)cc1 | -17 | -6 | · | 4 | 2 | · | 9 | ·
COc1cc(CN2CCC(Oc3cc(C(=O)NC4CC4)ccc3OC)CC2)cc(OC)c1 | 0 | -16 | i | -2 | -1 | -1 | -11 | -9
Cc1ccc(N/N=C/c2c(C)c(C#N)c(=O)n(C)c2O)cc1C | · | -18 | i | 3 | 10 | 41 | -13 | 37
CCOc1ccccc1N(CC(=O)Nc1ccccc1C(=O)N1CCOCC1)S(C)(=O)=O | 1 | -18 | i | -1 | 5 | 6 | -13 | -1
CC(C)(C)NC(=O)CSc1nc2cc(S(=O)(=O)N3CCCCC3)ccc2o1 | -2 | 9 | · | 3 | -6 | · | · | ·
COC(=O)[C@@H]1C[C@@]2(O)[C@@H](O)[C@@H](O)[C@@H](O)C[C@H]2N1CC1CCCCC1 | 3 | -30 | i | 3 | 5 | 11 | 3 | -8
CCN1CCN(c2cc(C)c3cc(NC(=O)CCC(=O)Nc4ccc(OC)c(OC)c4)ccc3n2)CC1 | 1 | -1 | i | · | · | 3 | -1 | -7
CN(C(=O)COC(=O)c1cccc(NS(=O)(=O)c2ccc(F)c(F)c2)c1)C1CCS(=O)(=O)C1 (stereo not given) | -3 | · | i | 3 | 6 | 4 | -2 | 6

Compound activity as filed in PubChem.
